HPGD block – inhibitors of human 15-hydroxyprostaglandin dehydrogenase (HPGD); P15428; purified HPGD, NADH fluorescence kinetic, PGE2 substrate; Potency, µM, without a hit: at the top dose activity change, negative = inhibition, usual class: inhibitors; hit rate 4.3% among 150,000; AID 894; active = well fitted inhibition curve with a large enough effect (not every such curve was filed as active); inconclusive = small, poorly fitted or top-dose-only effect, or another doubt; inactive = no such curve, though single readings can be large or run the other way;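 note: top concentration of the series not given in the record; plate controls included wells without enzyme; inactives centre near -10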
Target sequence (P15428 whole entry, looked up): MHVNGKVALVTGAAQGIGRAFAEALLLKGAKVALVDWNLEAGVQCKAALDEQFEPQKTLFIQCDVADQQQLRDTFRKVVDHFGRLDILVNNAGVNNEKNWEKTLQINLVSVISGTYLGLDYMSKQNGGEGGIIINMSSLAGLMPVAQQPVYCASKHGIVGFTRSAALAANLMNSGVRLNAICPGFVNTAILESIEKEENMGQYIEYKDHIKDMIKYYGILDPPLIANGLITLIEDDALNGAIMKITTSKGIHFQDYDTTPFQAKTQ
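NADH formation kinetics: reaction with 30 uM PGE2 and 1 mM NAD+ (final), 20 nM enzyme, Tris-HCl pH 8 with Tween 20, after 15 min compound preincubation at room temperature. Fluorescence change, last versus first of five reads.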
* marks the source's active call; other numbers are inactive results; ? = inconclusive. % is set by controls: 0 for no effect and ±100 for the full control effect; potency is the fitted concentration of half-maximal effect. This is a subset, so the mix of outcomes need not match the whole.

compound	HPGD block
Cc1cc(NS(=O)(=O)Cc2ccccc2)cc(C)c1OCC(=O)N1CCOCC1	-14%
CCc1nc(SCC(=O)Nc2ccccc2C(=O)OC)n[nH]1	-8%
CSc1ccccc1NC(=O)CN(c1cc(C)cc(C)c1)S(C)(=O)=O	-16%
O=C(O)C[n+]1ccccc1	-15%
CCOC(=O)C(NC(C)=O)C(=O)O (configuration not stated)	-10%
O=C(Nc1ccc2nc(-c3ccccc3)[nH]c2c1)c1cccs1	-4%
CCOC(=O)c1sc(C)c2c(=O)n(CCc3ccccc3)nnc12	-17%
O=S(=O)(c1ccc(Cl)cc1)N1CCN(Cc2c[nH]c3ccccc23)CC1	-1%
CN(C)c1cccc(C(=O)n2cc(C(=O)c3cc(F)ccc3O)cn2)c1	-17%
O=C(OCC(=O)N1CCc2ccccc21)c1ccccc1	-10%
Cc1nnc(SCCc2ccccc2)[nH]c1=O	-10%
CC(C)CCN1C(=O)CCC1(C)C(=O)NC1CCCCCCC1 (configuration not stated)	3%
Cc1ccc(NC(=O)c2ccc(N3C(=O)C4CC=C(Cl)CC4C3=O)cc2)cc1 (configuration not stated)	-6%
O=C(COc1cccc(C(F)(F)F)c1)Nc1ccc(S(=O)(=O)N2CCCC2)cc1	-22%
O=C1CCN(C(=O)Nc2cccc(Cl)c2)N1	-1%
O=C(CS(=O)(=O)Cc1ccccc1)N1CCN(C(=O)c2ccco2)CC1	-8%
O=C(NCCN1CCOCC1)c1ccc(Cc2nc3ccccc3[nH]2)cc1	-11%
CCOC(=O)CNC(c1ccccc1)c1cc(Br)ccc1NC(=O)OCC (configuration not stated)	-8%
CCOc1ccc2nc(C)cc(Nc3ccc(N4CCOCC4)cc3)c2c1	-19%
O=C(NC1CCS(=O)(=O)C1)c1cnccn1 (configuration not stated)	-12%
CCN(CC)C(=S)SCC(=O)Nc1ccc(F)cc1	18µM*
Cc1ccc(-c2nc3ccccn3c2NC(=O)c2ccco2)cc1	2%
CCOc1ccc(NC(=O)COC(=O)C23CC4CC(CC(C4)C2)C3)c([N+](=O)[O-])c1	-17%
N#C/C=C\Oc1ccc(Cl)cc1N	-20%
c1coc(-c2nc3c4c5c(sc4ncn3n2)CCCC5)c1	-8%
CCOC(=O)N1C2=NC(C(=O)OC)=C(C(=O)OC)[C@@H]3N(C)c4ccc(OC)cc4[C@]23C[C@H]1C(=O)OC	-10%
COc1ccccc1NC(CC(=O)c1ccccc1)C(=O)OCC(=O)c1ccc(C)cc1 (configuration not stated)	-13%
CCOC(=O)C1CCCN(c2nc3ccccc3nc2C(C#N)C(=O)OCC)C1 (configuration not stated)	-7%
Cc1ccc(C2CC(c3cccc(Cl)c3)n3nc(N)nc3N2)cc1 (configuration not stated)	-1%
CC1CCN(C(c2ccccc2)c2nnnn2C(C)(C)C)CC1 (configuration not stated)	-8%
COc1cc(OC)cc(-c2nc3nc(C)c(CCC(=O)NCc4ccco4)c(C)n3n2)c1	-11%
COc1ccc(CCNC(=O)CSc2nnc(-c3ccc(F)cc3)c3ccccc23)cc1OC	-8%
CCCCc1cc(=O)oc2c(CN3CCCC3)c(O)c(Cl)cc12	?
COC(=O)CSc1nc(-c2ccccc2)nc2ccc(F)cc12	-5%
CCOC(=O)c1oc2ccccc2c1NC(=O)c1ccc(S(=O)(=O)N(C)C)cc1	19%
CCCCC(=O)Nc1ccc(C(=O)NNC(=O)CCc2ccccc2)cc1	-11%
c1ccc(-n2c(-c3ccncc3)nnc2-c2cccs2)cc1	-23%
OCCCc1nc2ccccc2n1CCOc1ccccc1	-5%
O=C(CC1S/C(=N\S(=O)(=O)c2ccccc2)N(c2ccccc2)C1=O)Nc1ccc(F)cc1 (configuration not stated)	-9%
CCOC(=O)CCc1c(C)nc2cc(-c3ccccc3OC)[nH]n2c1=O	?

Three records drawn at random from the list so far:
compound	HPGD block
Cc1ccc(C2CC(c3cccc(Cl)c3)n3nc(N)nc3N2)cc1 (configuration not stated)	-1%
CCOC(=O)c1oc2ccccc2c1NC(=O)c1ccc(S(=O)(=O)N(C)C)cc1	19%
OCCCc1nc2ccccc2n1CCOc1ccccc1	-5%

3 of the entries above in order of their number in HPGD block, falling:
mol	HPGD block
CCOC(=O)c1oc2ccccc2c1NC(=O)c1ccc(S(=O)(=O)N(C)C)cc1	19%
CCc1nc(SCC(=O)Nc2ccccc2C(=O)OC)n[nH]1	-8%
Cc1nnc(SCCc2ccccc2)[nH]c1=O	-10%

Other results follow:
compound	HPGD block
COc1cc2nc(=S)n3[nH]c(COc4ccccc4C)nc3c2cc1OC	-27%
CCOc1ccc(Cn2nnc(C(=O)Nc3cc(C)cc(C)c3)c2N)cc1	-13%
O=[N+]([O-])c1ccc(N2CCC(=NOCc3ccc(Cl)cc3)CC2)cc1	-16%
O=c1oc2cc(O)ccc2c2oc3cc(O)ccc3c12	?
Cc1cccc(C(=O)NNC(=O)c2ccc(Cl)cc2)c1O	-27%
CC(C)C(C)(C)C(C)(C)C(C)(C)S	-2%
Cn1c(=O)n(Cc2ccc(F)cc2)c(=O)c2c1nc1n2CCCN1C1CCCCC1	-24%
Cc1ccc(NC(=O)Cn2cc(S(=O)(=O)c3ccccc3)c(=O)c3cc(F)ccc32)cc1	-16%
Cc1[nH]n(-c2ccccc2)c(=O)c1CCOC(=O)c1cccc(C(F)(F)F)c1	-17%
CC(C)C(NC(=O)C1CCC(C(C)(C)C)CC1)C(=O)NCc1cccnc1 (configuration not stated)	-5%
O=C(c1cnccn1)N1CCC2(CCCN(Cc3nccs3)C2)CC1	-1%
COCCN=c1scc(-c2ccccc2)n1/N=C/c1c[nH]c2ccccc12	-17%
O=C(Nc1ccc2nsnc2c1)N1CCCCC1	-24%
O=C1C2CCCN2C(c2ccc(F)cc2)N1c1ccc(Cl)cc1 (configuration not stated)	-3%
CCOc1cc(NC(=S)Nc2cccc(C)c2)c(OCC)cc1NC(=O)CC(C)C	-1%
CCc1ccc2oc(=O)cc(CN3CCOCC3)c2c1	-10%
COc1cccc(C2CC(c3ccccc3C)n3nc(N)nc3N2)c1 (configuration not stated)	-5%
COC(=O)c1cnn(C(=O)c2cc(OC)ccc2Br)c1N	-15%
COc1cc(-c2nc(-c3ccc4c(c3)-c3ccccc3S4(=O)=O)c(-c3ccccc3)[nH]2)cc(OC)c1OC	-28%
CNc1oc(-c2ccccc2Cl)nc1C#N	-27%
O=C(O)CSC12CC3CC(C1)CC(C(=O)O)(C3)C2	-8%
CC1CCCC(C)N1NC(=S)Nc1ccc(OC(F)F)cc1 (configuration not stated)	-13%
Cc1c(C2C(C#N)=C(N)OC3=C2C(=O)CCC3)cnn1C (configuration not stated)	-9%
Cc1ccc(CSc2ncnc3c2cnn3Cc2ccccc2)cc1	-11%
C(=N\Nc1nc(N2CCOCC2)nc(N2CCOCC2)n1)/c1ccncc1	-6%
Cc1ccc(C)c(NC(=O)Cc2ccc(S(=O)(=O)N3CCCCC3)s2)c1	-7%
COc1cc(C)c(/C=C(\C#N)C(=O)Nc2ccc(C)cc2)cc1C(C)C	-19%
COC(=O)C1=C(C)N=c2s/c(=C/c3cccs3)c(=O)n2C1c1cccs1 (configuration not stated)	-12%
CC(=O)N/C(=C\c1ccc(F)cc1)C(=O)NC(Cc1c[nH]c2ccccc12)C(=O)O (configuration not stated)	-6%
CCC(C)C(=O)OC1CC(C)C=C2C=CC(C)C(CCC3CC(O)CC(=O)O3)C21 (configuration not stated)	-1%
CCSc1nnc(-c2cccc(S(=O)(=O)N(C)C)c2)n1-c1cc(OC)ccc1OC	-6%
CC(=O)c1cccc(NC(=O)CCS(=O)(=O)c2cccc3nsnc23)c1	28µM*
CCOC(=O)C(C)(C)NS(=O)(=O)c1ccc(Cl)c([N+](=O)[O-])c1	-7%
CC(C)Oc1ccc(C(=O)NC(=S)N2CCOCC2)cc1	-3%
CCCc1nc2ccccc2c(C(=O)OC2CCOC2=O)c1CC (configuration not stated)	-7%
c1ccc([P+](CC[P+](c2ccccc2)(c2ccccc2)c2ccccc2)(c2ccccc2)c2ccccc2)cc1	-5%
Cn1c(=O)c2c(nc(N3CCOCC3)n2CCCNC2=NCCCCC2)n(C)c1=O	-6%
O=C(c1sc2cc([N+](=O)[O-])ccc2c1Cl)N1CCCCC1	1.1µM*
COC(=O)CC1C(C)(C)C(OC(C)=O)C2CC3=C4CC(=O)OC(c5ccoc5)[C@]4(C)CCC3[C@@]1(C)C2=O (some centres not stated)	0%
O=C(Nc1ccccc1-c1ccccc1)NC1CC2CCCC(C1)N2CCc1ccccc1 (configuration not stated)	-5%
Cc1cc(NC(=O)CSc2nnc(COc3ccccc3)n2Cc2ccco2)no1	-6%
O=C(CSc1cc(Cl)ccc1Cl)NCC1CCCO1 (configuration not stated)	6.3µM*
O=C(COC(=O)c1ccccc1)NCC1CCCO1 (configuration not stated)	-30%
COC(=O)C1=C(COc2ccc(F)cc2)NC(=O)NC1c1ccc(C)cc1C (configuration not stated)	-16%
CC(OC(=O)c1nsc(Cl)c1Cl)C(=O)NCc1cccs1 (configuration not stated)	?
CC(=O)c1ccc(N2CCN(c3ccc(S(=O)(=O)N4CCN(C)CC4)cn3)CC2)cc1	-15%
CC(=O)c1ccc(NC(=O)OCCN2CCN(Cc3ccccc3)CCC2=O)cc1	-19%
O=C1[C@@H]2[C@@H](C(=O)N1c1ccc(OCc3ccccc3)cc1)[C@@H]1c3ccccc3[C@@H]2[n+]2ccccc21	-4%
O=C(CN1CCCC1)Nc1ccc(NC(=O)Nc2ccccc2Cl)cc1	-18%
COc1ccc(C(=O)N/N=C(/C)c2ccc(N3CCCCC3)cc2)cc1	?
O=C(Nc1ccc(Cl)cc1)NC1CCCc2ccccc21 (configuration not stated)	-11%
Cc1ccc(C)c(Cn2nnc3c(=O)[nH]c(C4CCCN(C(=O)C5CCCCC5)C4)nc32)c1 (configuration not stated)	6.3µM*
CC(=O)Nc1ccc(OC(=O)c2cccs2)cc1	?
c1coc(CNc2c3c(nc4ccccc24)CCC3)c1	-8%
COC(=O)C1=C(C)NC(=O)CC1c1ccc(F)c(Br)c1 (configuration not stated)	-3%
CCC1(CC)Cc2ccccc2-c2nc(NCCO)[nH]c(=O)c21	?
N#Cc1c(N2CCCC(O)C2)nc(N)c2c(N)nc3c(c12)CC(=O)N3C12CC3CC(CC(C3)C1)C2 (configuration not stated)	?
COc1cc2c(cc1OC)CN(CC(=O)Nc1ccc3c(c1)OC(F)(F)O3)CC2	0%
Cc1ccc2nc3c(c(C(=O)O)c2c1)CCC3	1%
Cn1cccc1C(=O)N1CCC2(CCCN(C(=O)Nc3ccccc3)C2)CC1	-2%

The list goes on:
compound	HPGD block
CCCNC(=O)C1CC(=O)N(c2ccc(OCC(=O)Nc3cc(C)cc(C)c3)cc2)C1 (configuration not stated)	-24%
CCN1CCN(C(=O)C2CCN(C(=O)c3cc4sccc4n3CC)CC2)CC1	-16%
Nc1ccccc1SCC(=O)Nc1ccc(N2CCOCC2)cc1	-9%
CC(C)NS(=O)(=O)c1ccc(CCC(=O)Nc2ccc3c(c2)OCCO3)cc1	-5%
Cc1csc(NC(=O)CSc2ncn(-c3ccccc3)n2)n1	-3%
Clc1ccc(-n2nnnc2-c2cnc(-c3ccncc3)nc2-c2cccs2)cc1	-16%
CCOC(=O)Cc1csc(NC(=O)CSc2nnc(C)n2C)n1	-5%
CCOC(=O)c1c(NC(=O)CN2CCOCC2)sc2c1CCCC2=O	-13%
COC(=O)c1ccccc1NC(=O)Oc1ccc(F)cc1	?
Cc1c(NC(=O)NC(=O)c2ccc(F)cc2)c(=O)n(-c2ccccc2)n1C	2%
N#CC1=C(N)OC2=C(C(=O)CCC2)C1c1ccsc1 (configuration not stated)	-12%
CCN=C1S/C(=C\c2ccc(Sc3ccc(Cl)cc3)o2)C(=O)N1CC	-16%
COc1cc2c3cc1Oc1cc(ccc1O)CC1c4c(cc(OC)c(O)c4Oc4ccc(cc4)CC3N(C)CC2)CC[N+]1(C)C (configuration not stated)	-6%
c1coc(-c2ncc[nH]2)c1	-11%
O=C1C=CC2=C3c4cc(O)c(O)cc4C[C@@]3(O)COC2=C1	11µM*
CCOC(=O)c1oc2ccccc2c1CSc1nnc(-c2ccco2)o1	-21%
O=C(NC1CCCC1)c1cccnc1N1CCCCCC1	-5%
CCOc1ccc(C(=O)/C=C/c2ccccc2C(F)(F)F)cc1	-18%
CCOC(=O)C1CCN(C(=O)Cn2cccc2C(=O)c2ccccc2)CC1	1%
CC1(C)CC(=O)c2cc(OCC(=O)NCCN3CCOCC3)ccc2O1	?
CC[C@@]1([N+](=O)[O-])C[C@H]2C=C[C@@H]1C2	-10%
O=C(O)c1cn(-c2ccc(F)cc2)c2cc(N3CCNCC3)c(F)cc2c1=O	?
CN(C)S(=O)(=O)c1ccc(C(=O)N2CCN=C2SCc2cccnc2)cc1	-16%
O=C(CC(NS(=O)(=O)c1ccc(Cl)cc1)c1ccco1)NCc1cccnc1 (configuration not stated)	0%
O=C(Nc1ccc(C#Cc2ccccc2)cc1)C1CC1	-14%
Cn1c(=O)cc(OCC(=O)N2CCCc3ccccc32)c2ccccc21	?
